# Screening results as filed in PubChem BioAssay.
# RecA intein inh = inhibitors of M. tuberculosis RecA intein splicing. P9WHJ3. cell-free RecA intein splicing, fluorescence. inhibition, %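 (about 9 µM by stock and volumes)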. 290,000 tested, 0.75% active. AID 2221; in the data active = inhibition above about 30%; inconclusive = no clear call, values can overlap the other calls;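 note: 0% = vehicle wells and 100% = reference inhibitor control wells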
# Target sequence (P9WHJ3 whole entry, looked up): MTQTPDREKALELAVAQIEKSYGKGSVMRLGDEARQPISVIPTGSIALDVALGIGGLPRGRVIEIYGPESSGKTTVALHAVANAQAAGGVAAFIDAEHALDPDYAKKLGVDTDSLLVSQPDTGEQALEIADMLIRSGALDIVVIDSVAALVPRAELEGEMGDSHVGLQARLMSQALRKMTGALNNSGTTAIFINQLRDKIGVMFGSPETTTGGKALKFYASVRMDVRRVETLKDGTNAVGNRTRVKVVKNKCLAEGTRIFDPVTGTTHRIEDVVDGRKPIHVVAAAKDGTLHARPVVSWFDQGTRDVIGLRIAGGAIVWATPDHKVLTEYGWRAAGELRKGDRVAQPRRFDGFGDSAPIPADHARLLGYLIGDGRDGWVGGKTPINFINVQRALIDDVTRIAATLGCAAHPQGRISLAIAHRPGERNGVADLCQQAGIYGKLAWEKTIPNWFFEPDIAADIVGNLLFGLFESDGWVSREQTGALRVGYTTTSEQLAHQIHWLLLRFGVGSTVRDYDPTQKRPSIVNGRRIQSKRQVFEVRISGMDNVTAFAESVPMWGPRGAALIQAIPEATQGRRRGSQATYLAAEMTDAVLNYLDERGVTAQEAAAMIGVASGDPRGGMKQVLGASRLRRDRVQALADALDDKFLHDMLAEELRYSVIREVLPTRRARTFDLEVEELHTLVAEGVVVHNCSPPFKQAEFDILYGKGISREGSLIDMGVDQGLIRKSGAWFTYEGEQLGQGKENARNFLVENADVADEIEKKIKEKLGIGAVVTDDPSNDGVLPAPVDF
# Mtb betalactam = beta-lactam sensitization of Mtb H37Rv | M. tuberculosis H37Rv growth with meropenem, percent inhibition; hits of this screen are not shown here | inhibition, % at 25 µM | 330,000 tested, 0.27% active | AID 434955;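 active = about 74% or more and at least 40 points above the plate without the antibiotic, then above 30% in a dose series; inconclusive = first-round hits that could not be retested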;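 note: growth measured after seven days incubation then overnight dye step; 0% = bacteria only wells and 100% = bacteria with antibiotic; twin plates without the antibiotic show which effects depend on it; some results filed as inactive read as strong as hits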
# YopH PTP inh = inhibitors of Yersinia enterocolitica YopH tyrosine phosphatase; 140,000 tested, 0.16% active; inhibition, %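 (about 10 µM by stock and volumes)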; fluorescence Ex485/Em525;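 active = inhibition of 50% or more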;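 note: controls were vehicle for no effect and minimum signal wells for full effect; inactives centre near -20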
# Mtb H37Rv = M. tuberculosis H37Rv growth inhibitors, H37Rv strain (AID 1626); M. tuberculosis H37Rv growth inhibition; higher % means a stronger effect; inhibition, % at 10 µM; hits with a dose series show IC50 in µM; 220,000 tested, 0.95% active;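 active = confirmed in a dose series; inconclusive = inhibition above 80% but not taken into the dose series; inactive = below 80% or under 30% at every dose of the series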;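 note: bacteria incubated seven days before Alamar blue readout; 0% = bacteria only wells and 100% = bacteria with antibiotic wells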
# Arbovirus anti = arbovirus infection inhibition. arbovirus infection cell-based antiviral screen. inhibition, % at 10 µM. 200,000 tested, 0.37% active. AID 1251;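 active = inhibition from about 30%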;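 note: bluetongue infection of BSR cells; cell survival read as ATP light after 72 h; 0% = infected wells without compound and 100% = uninfected wells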
# Arbovirus anti repeat = further read-out of Arbovirus anti, marked with its call; inhibition, %; measured here: 10K subset replicate screen; many hits read low in the repeat;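 first of two repeat runs on a subset; 0% = infected and 100% = uninfected wells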
# The depositor's hits bear a star; u = inconclusive; x = no result given.
SMILES,RecA intein inh,Mtb betalactam,YopH PTP inh,Mtb H37Rv,Arbovirus anti,others
COC(=O)N/N=C/c1cc(C)n(-c2cccc3ccccc23)c1C,4.3,-1,-25,2%,-11,
Cn1c(Cn2c(=O)sc3ccccc32)nnc1SCC(=O)NCc1ccco1,-0.5,2,-41,-7%,7,Arbovirus anti repeat=-3
O=[N+]([O-])c1ccc(Sc2ccccn2)nc1,-0.2,3,x,x,x,
COc1cc(C(=O)N2CCN(c3cc(Cl)ccc3Cl)CC2)cc(OC)c1OC,8.8,6,-36,13%,-9,Arbovirus anti repeat=-17
O=C(CSc1nnc(-c2ccncc2)n1-c1ccccc1)NC1CC1,-3.7,u,x,x,x,
CCN(CC)S(=O)(=O)c1ccc(Br)c(OC)c1,-0.2,1,-25,-4%,0,
CCS(=O)(=O)Nc1cccc(C2=NN(S(C)(=O)=O)C(c3ccccc3)C2)c1 (configuration not stated),-2.7,-1,x,-5%,-4,
CCOC(=O)C1CCN(C(=O)COC(=O)Cc2ccc(Cl)cc2)CC1,0.4,4,x,x,x,
O=C(CSc1nnc(-c2cccc(S(=O)(=O)N3CCCC3)c2)n1-c1ccccc1)Nc1cccc(C(=O)O)c1,0.3,-6,x,13%,x,
O=C(NC1CCCCC1)C(c1ccncc1)N(C(=O)c1csnn1)c1ccc(F)cc1 (configuration not stated),-2.3,4,x,x,x,
CC(C)/C=C1\CC/C(=C\c2ccc(N(C)C)cc2)C1=O,-0.1,9,-24,5%,-22,
O=C(NCCCN1CCOCC1)c1ccc(Sc2ccc(F)cc2)c([N+](=O)[O-])c1,-3.7,-3,-29,1%,-15,
O=C(Oc1c(CN2CCOCC2)cc(Cl)c2cccnc12)c1ccc(F)cc1,1.1,85,-35,1%,-10,
COc1cc(CCC(=O)OCC(=O)Nc2ccc(C)cc2Cl)cc(OC)c1OC,-1.8,-4,x,x,x,
CCCc1cc(N2CCOCC2)n2ncc(-c3ccccc3)c2n1,-3.6,8,x,x,x,
Cc1sc(NC(=O)Nc2ccccc2)c(C(N)=O)c1C,-0.3,0,x,4%,0,
COc1cccc(N/C(SCc2ccccc2Cl)=C(/C#N)C(=O)NCc2cccs2)c1,-0.1,7,-6,11%,-8,
Oc1ccc(Cl)cc1Cc1cc(Cl)ccc1O,13,2,-14,-12%,-45,
O=C(NCCCN1CCC(Cc2ccccc2)CC1)C1CCC(=O)N1C1CCCC1 (configuration not stated),-2.1,-6,3,-2%,1,Arbovirus anti repeat=2
CCOC(=O)c1ccc(N2C(=O)CC(N3CCN(Cc4ccccc4)CC3)C2=O)cc1 (configuration not stated),0.5,-5,-32,1%,4,Arbovirus anti repeat=-1
CC(O)CSc1nc2c(c(=O)n(C)c(=O)n2C)n1CCCc1ccccc1 (configuration not stated),-1.4,0,x,4%,-3,Arbovirus anti repeat=2
CC(=O)OC1COC(N2CCc3cc(Br)c([N+](=O)[O-])cc32)C(OC(C)=O)C1OC(C)=O (configuration not stated),-1.8,u,-12,-6%,2,
CCOc1ccccc1NC(=O)Cc1c(F)cccc1Cl,0.9,3,0,2%,-5,
COc1ccc(C(=O)Nc2cccc(NC(C)=O)c2)cc1OC,9.5,-3,-38,-5%,6,
COCC(=O)N1CCCC(C(=O)c2ccc(C(F)(F)F)cc2)C1 (configuration not stated),-3.4,-2,x,x,x,

# 5 structures out of the list, sorted by number of heavy atoms, low to high.
SMILES,RecA intein inh,Mtb betalactam,YopH PTP inh,Mtb H37Rv,Arbovirus anti,others
CCCc1cc(N2CCOCC2)n2ncc(-c3ccccc3)c2n1,-3.6,8,x,x,x,
CC(O)CSc1nc2c(c(=O)n(C)c(=O)n2C)n1CCCc1ccccc1 (configuration not stated),-1.4,0,x,4%,-3,Arbovirus anti repeat=2
O=C(Oc1c(CN2CCOCC2)cc(Cl)c2cccnc12)c1ccc(F)cc1,1.1,85,-35,1%,-10,
O=C(NCCCN1CCOCC1)c1ccc(Sc2ccc(F)cc2)c([N+](=O)[O-])c1,-3.7,-3,-29,1%,-15,
O=C(NCCCN1CCC(Cc2ccccc2)CC1)C1CCC(=O)N1C1CCCC1 (configuration not stated),-2.1,-6,3,-2%,1,Arbovirus anti repeat=2

# Going on with the list.
SMILES,RecA intein inh,Mtb betalactam,YopH PTP inh,Mtb H37Rv,Arbovirus anti,others
Cn1c(C(=O)O)cc2cc(F)ccc21,-8.9,6,-37,0%,x,
CC[C@@H]1CC=C[C@H]2[C@H]1C(=O)N(Cc1ccccc1)[C@H]2c1cc(C)ccc1F,19,x,x,-2%,x,
COc1ccc(C(CNC(=O)c2cccc(S(=O)(=O)Nc3ccc(C)cc3)c2)N2CCCCC2)cc1 (configuration not stated),2.4,18,x,x,x,
Cc1ccc(NC(=O)c2cc(-c3ccccc3O)n[nH]2)cc1C,-0.7,2,x,x,x,
CCOC(=O)C1CCN(CCC(=O)Nc2cccc(Cl)c2C)CC1,-0.6,11,-6,-8%,11,Arbovirus anti repeat=3
CCOc1cc(CNCCO)cc(Br)c1OCc1ccccc1,4.1,21,x,12%,-20,
Cc1nn(-c2ccccc2)c2nc(N)c(C#N)c(-c3ccc(F)cc3)c12,-3.3,32,-36,-2%,3,
Cc1cc(OCC(=O)N2CCCCCC2)ccc1[N+](=O)[O-],-3.7,-8,-20,3%,8,
Clc1ccc2nc(CSc3nc4ccccc4o3)cn2c1,-1.0,-25,6,-16%,-12,
COC(=O)Nc1ccc(SCC(=O)c2ccccc2)cc1,-1.1,1,x,0%,-1,
CC1=CS(=O)(=O)CC1Sc1nc2ccccc2[nH]1 (configuration not stated),6.8,-6,-11,1%,-6,
COc1ccc(CCNC(=O)CCCn2c(=O)c3cccn3c3cccnc32)c(OC)c1,1.5,-1,x,x,x,
O=C(N/N=C/c1cccc(O)c1)c1csc2ccccc12,-5.3,7,-9,2%,-4,
O=C(NCc1cccs1)C(Cc1ccccc1)n1cccc1 (configuration not stated),-2.5,5,-24,-2%,-5,Arbovirus anti repeat=5
CC(=O)N1c2c(cc(Br)cc2S(=O)(=O)NCc2ccccc2)CC1C (configuration not stated),-4.0,-2,x,x,x,
Cc1c(NC(=O)CN2C(=O)NC(C)(c3ccc4c(c3)OCCO4)C2=O)c(=O)n(-c2ccccc2)n1C (configuration not stated),-5.1,-4,-22,9%,-1,
Cc1nn(-c2ccccc2)c(N)c1-c1ccccc1,-1.1,-2,x,-2%,-5,
COCCCNC(=O)/C=C/c1c(Cl)cccc1Cl,2.0,4,-24,-2%,2,
O=C(OCC(=O)N1CCCc2ccccc21)c1cccnc1Cl,0.9,-4,-23,-2%,-1,
NC(=O)CC(NC(=O)Cc1cccc2ccccc12)c1ccc(NC2CC3CCC2C3)c([N+](=O)[O-])c1 (configuration not stated),-0.3,0,x,x,x,
Cc1cc(C(=O)NNC(=O)CCCCC(=O)NNC(=O)c2cc(C)[nH]n2)n[nH]1,-2.3,-1,-2,2%,4,
Cc1ccc(-c2cc(C(F)F)n3ncc(C(=O)N4CCc5ccccc54)c3n2)cc1,-2.0,-2,x,3%,-8,
CC(C)(COC(=O)Nc1ccccc1)COC(=O)Nc1ccccc1,3.3,1,x,x,x,
Cc1cccc(Cn2c(O)c(N=NC(=S)Nc3ccccc3F)c3ccccc32)c1,-1.5,3,x,0%,-12,
Cc1cc(NS(=O)(=O)c2ccc(NC(=O)c3ccoc3C)cc2)nc(C)n1,x,x,-12,-7%,-4,

# (cont.)
SMILES,RecA intein inh,Mtb betalactam,YopH PTP inh,Mtb H37Rv,Arbovirus anti,others
COc1ccc(-c2nc(-c3ccccc3)nc(Cl)c2C#N)cc1,0.2,52,-12,1%,13,
Cc1ccc(C(=O)NN2C(=O)C3C4C=CC(C4)[C@@H]3C2=O)cc1 (some centres not stated),-4.1,-4,x,-4%,x,
CCC(C)[C@H](NC(=O)NCc1ccccc1Cl)C(=O)O (some centres not stated),-0.7,-2,-27,-2%,-1,
O=C(O)COc1ccc(/C=C/c2nc3ccc([N+](=O)[O-])cc3s2)cc1,-6.7,-3,x,-3%,x,
Cc1c(C(=O)OCC(=O)Nc2c(C)n(C)n(-c3ccccc3)c2=O)cccc1[N+](=O)[O-],-0.7,6,x,-7%,-4,
O=C(CCC(=O)OCCCC(F)(F)C(F)(F)F)Nc1ccccc1,-2.5,-6,-12,-7%,-2,Arbovirus anti repeat=3
CC(=O)c1ccc(OCc2cc(C(=O)NCC3CCCCO3)no2)cc1 (configuration not stated),3.6,-4,x,x,x,
CNc1nc(C)c(C(=O)OCc2ccccc2)s1,x,-2,-23,-8%,-2,
O=C(Cc1ncc(C(F)(F)F)cc1Cl)Nc1cccc(Br)c1,1.0,-8,-9,-2%,12,
CC(=O)OC(C(=O)NCCN1CCOCC1)c1c(F)cccc1F (configuration not stated),-4.2,-9,x,-7%,0,
O=C(CS(=O)(=O)Cc1ccccc1)N1CCN(c2cccc(C(F)(F)F)c2)CC1,1.4,-7,-14,-9%,10,
CCc1ccc(NC(=O)C(=O)NCC(O)c2ccccc2)cc1 (configuration not stated),-1.0,-2,x,11%,6,
NS(=O)(=O)c1ccc(NC(=O)CSc2n[nH]c(=O)n2Cc2ccccc2)cc1,-1.2,-5,x,x,x,
Cc1ccc(OC(F)F)c(NC(=O)Nc2cccc(C(F)(F)F)c2)c1,6.0,8,-3,55%,-46,
Cc1cc(NC(=O)c2c(Br)c(C)nn2C)no1,-0.7,0,-23,-1%,2,
COc1ccc(C/C(N)=N/OC(=O)c2cccc([N+](=O)[O-])c2)cc1,-1.1,0,-24,3%,9,
CC(OC(=O)C1CC(=O)N(Cc2ccccc2)C1)C(=O)Nc1cccc(C#N)c1 (configuration not stated),2.8,-22,x,x,x,
CCOc1ccc(S(=O)(=O)N2CCC(C(=O)NCc3ccccn3)CC2)cc1C,1.7,3,x,x,x,
COC(=O)NNC(=O)COc1ccccc1C,0.9,0,-16,1%,4,
O=C(CC12CC3CC(CC(C3)C1)C2)N1CCCOC1,-2.7,7,-45,-8%,3,
O=c1[nH]c(Cc2ccccc2)nc2c1oc1ccccc12,0.0,u,-10,-5%,5,
O=C(O)Cn1c(-c2ccccn2)nc2ccccc21,-1.5,-6,x,x,x,
CCN(CC)CCNC(=O)c1cc2c(s1)-c1ccccc1SC2,-93,3,x,x,x,
COc1cc(CCCN2CCNC[C@@H]2C(C)O)cc(OC)c1OC (some centres not stated),-2.3,-7,x,x,x,
COc1ccccc1Cn1c(=O)c2ccccc2n2c(Sc3ncnc4sccc34)nnc12,x,-2,3,2%,0,
O=C(O)CCCCCCCCCCP(=O)(c1ccccc1)c1ccccc1,1.3,-5,x,0%,x,
Cc1cc(Cl)c(S(=O)(=O)N(C)C)cc1OCC(N)=O,2.0,-10,-7,-3%,-2,

# Grouped by structure: those above with an NH in an aromatic ring.
SMILES,RecA intein inh,Mtb betalactam,YopH PTP inh,Mtb H37Rv,Arbovirus anti,others
Cc1ccc(NC(=O)c2cc(-c3ccccc3O)n[nH]2)cc1C,-0.7,2,x,x,x,
CC1=CS(=O)(=O)CC1Sc1nc2ccccc2[nH]1 (configuration not stated),6.8,-6,-11,1%,-6,
Cc1cc(C(=O)NNC(=O)CCCCC(=O)NNC(=O)c2cc(C)[nH]n2)n[nH]1,-2.3,-1,-2,2%,4,
NS(=O)(=O)c1ccc(NC(=O)CSc2n[nH]c(=O)n2Cc2ccccc2)cc1,-1.2,-5,x,x,x,
O=c1[nH]c(Cc2ccccc2)nc2c1oc1ccccc12,0.0,u,-10,-5%,5,

# The list is partial; the hit share may differ from the screen's.
